Source: PubChem (several laboratories)
eIF4H FP inh: inhibitors of RNA binding by human eIF4H. Q15056. eIF4H fluorescence polarization binding assay. inhibition, % at 35 µM. actives 0.94% (n = 290,000);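 active = 50% or more with normal probe brightness, or confirmed in later tests; inconclusive = above 50% with abnormal brightness, or retests that disagree; inactive = below 50% or failed in later tests; about a fifth of its hits are not listed in these tables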;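 also: calls also rest on retests at 20 µM and on dose response follow-up; 0% = protein and probe with vehicle and 100% = probe without protein; strong numbers were not always called active; many hits fall short of the cut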
MT1-MMP act inh: blocks activation of human MT1-MMP. AID 651647. P50281. actives 0.061% (n = 360,000). GFP/RFP ratio change, % at 20 µM. HT1080 RFP-PRO-GFP cells, GFP/RFP ratio fluorescence, overnight; percent of plate control window, DMSO zero;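 active = GFP/RFP ratio change of at least 30% with cell ATP level not reduced by more than half and red fluorescence within 50% of control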; also: strong numbers were not always called active
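Material: RFP-PRO-GFP reporter HT1080 cells. Dosing: single-point 20 µM compound, 1% DMSO. Controls: DMSO and RFP-L50D-GFP cell wells. Timing: cells overnight before dosing, compound overnight, 37 °C, 5% CO2. Measure: GFP/RFP fluorescence ratio.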
Rce1 inhib: blocks yeast Ras-converting enzyme; calls only; actives 0.27% (n = 290,000); yeast membranes, quenched prenylated peptide cleavage fluorescence; Q03530; AID 2563;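 active = fall in fluorescence gain of 50% or more versus controls, with final raw signal at or below 3038400; inconclusive = same 50% fall but final raw signal above 3038400; inactive = fall in fluorescence gain under 50%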;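 also: plate controls were neutral control wells for no effect and wells lacking membranes for full effect; tested at 10 µM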
UUG fidelity: alters start codon recognition fidelity in yeast | S. cerevisiae UUG-firefly luciferase reporter, luminescence/redox ratio | activity score, % at 18.7 µM | actives 0.13% (n = 350,000) | AID 602363;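 active = replicate mean at a twofold rise or more, about +100% in these data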;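 also: firefly luciferase made from a UUG start codon reports start codon fidelity; reporter light over untreated wells divided by growth signal over untreated wells; some hits fall short of that in this replicate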
Env fusion inh: blocks HIV Env-driven cell-cell fusion. HeLa-JRFL Env/CEM21 cell fusion, luciferase. inhibition, % at 12.3 µM. actives 1.1% (n = 360,000);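 active = mean replicate inhibition score of at least 50 and every replicate individually at or above 50; inconclusive = only one of the two criteria met; inactive = mean below 50 and not all replicates reaching 50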;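 also: 0% = plate neutral controls and 100% = maraviroc near 300 nM; one replicate is shown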
CSC inhib: cancer stem cell inhibition | actives 1.1% (n = 300,000) | inhibition, % at 7.5 µM | cancer stem cell-like cells viability, luminescence | AID 2717;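 active = mean at 75% or more and at least half the replicates too; inconclusive = mean and replicates disagree; tested in HMLE shEcad cells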;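 also: 0% = median of negative and 100% = median of positive control wells; the first replicate is given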
PABP FP inh: blocks human PABP binding to poly(A) RNA | AID 2014 | actives 1% (n = 290,000) | fluorescence polarization | P11940 | inhibition, % at 35 µM;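 active = 50% or more with normal probe brightness, or confirmed in later tests; inconclusive = above 50% with abnormal brightness, or retests that disagree; inactive = below 50% or failed in later tests; about a fifth of its hits are not listed in these tables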;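 also: calls also rest on retests at 20 µM and on dose response follow-up; controls were probe without protein and protein plus probe with vehicle; some compounds called inactive have numbers as strong as hits; many hits fall short of the cut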
Target sequence (P11940 whole entry, looked up): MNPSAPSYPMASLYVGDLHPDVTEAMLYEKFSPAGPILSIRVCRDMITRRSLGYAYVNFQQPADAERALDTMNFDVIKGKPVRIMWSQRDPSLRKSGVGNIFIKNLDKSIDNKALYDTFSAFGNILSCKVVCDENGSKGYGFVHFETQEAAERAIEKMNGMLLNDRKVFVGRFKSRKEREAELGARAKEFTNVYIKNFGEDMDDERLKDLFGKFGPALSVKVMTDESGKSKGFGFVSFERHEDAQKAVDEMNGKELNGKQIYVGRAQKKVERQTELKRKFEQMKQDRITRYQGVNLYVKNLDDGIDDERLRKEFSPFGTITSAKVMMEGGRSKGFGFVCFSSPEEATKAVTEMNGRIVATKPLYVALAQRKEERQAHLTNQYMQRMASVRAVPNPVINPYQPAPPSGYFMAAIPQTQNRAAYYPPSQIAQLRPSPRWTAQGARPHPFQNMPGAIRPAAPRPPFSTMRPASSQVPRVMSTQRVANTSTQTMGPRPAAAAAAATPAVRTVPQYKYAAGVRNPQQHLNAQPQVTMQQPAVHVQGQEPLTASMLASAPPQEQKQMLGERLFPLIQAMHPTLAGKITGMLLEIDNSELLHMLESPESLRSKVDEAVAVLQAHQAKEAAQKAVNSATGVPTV
MT1-MMP act inh RFP: recorded beside MT1-MMP act inh, whose call it bears; RFP signal change, %; measured here: RFP expression control read;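 0 = vehicle wells; hits needed this value within 50% of zero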
Active calls of the source: *; i = inactive; ? = inconclusive; · = no result given. This is a subset (hit frequency here may not be typical).

SMILES	eIF4H FP inh	MT1-MMP act inh	MT1-MMP act inh RFP	Rce1 inhib	UUG fidelity	Env fusion inh	CSC inhib	PABP FP inh
COc1ccc(CCNS(=O)(=O)CCNC(=O)c2ccccc2)cc1	·	-2	-3	i	-7	-35	-1	·
O=C(CSc1nnc(NC(=O)c2ccc3c(c2)OCO3)s1)NCc1ccco1	-1	0	1	i	·	6	7	0
Cc1ccc(NC(=O)CCc2c(C)nn(-c3ccc(N4CCCCC4)nn3)c2C)cc1	6	5	2	i	-11	-17	3	-12
CCCCc1ccc(/C=C2\C(=O)ON=C2c2ccccc2)s1	0	1	1	·	·	10	8	-3
Cc1nn(-c2ccccc2)c2sc(C(=O)OCN3C(=O)c4ccccc4C3=O)cc12	4	·	·	i	·	·	·	-4
CCOc1ccc(C(F)(F)F)cc1NC(=O)c1ccc(OC)c([N+](=O)[O-])c1	-1	3	1	i	-30	·	6	-2
CC(=O)Nc1ccc(NC(=O)CSCCc2ccccn2)cc1	-3	0	1	i	-27	-15	·	-1
CC(=O)N1CCN=C1SCc1cccc(C)c1	-3	0	4	i	-16	-2	-7	-8
COc1ccc(/C=N/OCC(=O)N=Nc2c(O)[nH]c3ccc(Br)cc23)cc1	-1	1	1	i	·	-5	11	-1
O=C(O)c1ccccc1-c1ccccc1C(=O)NCc1cccnc1	-8	-4	0	i	·	-9	-3	0
c1cnc2c(C3NCCc4c3[nH]c3ccccc43)cccc2c1 (stereo not drawn)	-1	0	3	i	-15	·	3	-1
O=C(NCCN1CCOCC1)c1cccc(S(=O)(=O)N2CCCC2)c1	9	3	3	i	9	8	-12	-3
O=C(Cc1ccccc1)N/N=C/C=C/c1cccc([N+](=O)[O-])c1	-2	0	4	i	-17	-66	-3	-3
CCNC(=O)CC1C(=O)N(CC)C(=S)N1NC(=O)c1ccccc1 (stereo not drawn)	-4	-4	-1	i	-2	-1	-18	1
CC(=O)c1cccc(NC(=O)C2(C)Cc3c(-c4cccc(C(F)(F)F)c4)ccnc3O2)c1 (stereo not drawn)	·	-1	-4	·	1	3	·	·

Complete entries from above.
Listed for Cc1ccc(NC(=O)CCc2c(C)nn(-c3ccc(N4CCCCC4)nn3)c2C)cc1 : eIF4H FP inh: 6; MT1-MMP act inh: 5; MT1-MMP act inh RFP: 2; Rce1 inhib: i; UUG fidelity: -11; Env fusion inh: -17; CSC inhib: 3; PABP FP inh: -12
Listed for CCCCc1ccc(/C=C2\C(=O)ON=C2c2ccccc2)s1 : eIF4H FP inh: 0; MT1-MMP act inh: 1; MT1-MMP act inh RFP: 1; Rce1 inhib: ·; UUG fidelity: ·; Env fusion inh: 10; CSC inhib: 8; PABP FP inh: -3

Later entries:
SMILES	eIF4H FP inh	MT1-MMP act inh	MT1-MMP act inh RFP	Rce1 inhib	UUG fidelity	Env fusion inh	CSC inhib	PABP FP inh
CCOC(=O)CC(=O)CSc1[nH]c(=O)cc(C)c1C#N	10	-7	2	i	-14	-11	2	19
Cc1c(Cl)cccc1NC(=O)CCCn1cnc([N+](=O)[O-])n1	-10	1	1	i	-2	-10	·	-10
CC(NC(=O)c1ccccc1NC(=O)c1ccco1)C(=O)O (stereo not drawn)	-1	2	0	i	-12	-16	-2	-7
CC(NC(=O)c1c(Cl)cnn1C)C1CCCO1 (stereo not drawn)	-5	-3	1	i	-17	7	-9	7
O=C(COc1ccccc1)NC1CCSC1=O (stereo not drawn)	-3	5	1	i	·	12	-10	0
CSCC[C@H](NS(=O)(=O)c1ccc(C)cc1)C(=O)N1CCC(C(=O)N[C@H](C(=O)O)c2ccccc2)CC1	-2	4	4	i	-4	·	-5	9
CC1(C(=O)Nc2ccc(Cl)c(Cl)c2)CCN1C(=O)CCC1CCCC1 (stereo not drawn)	·	9	-8	·	11	4	·	·
CC(=O)NN(O)C1N(C)C(=O)N(Cc2ccccc2)C1(C)C (stereo not drawn)	·	0	-1	i	·	9	-9	·
COCc1nnc(NC(=O)c2ccco2)s1	0	3	5	i	-13	-16	·	4
O=C(NC1Cc2ccccc2C1)c1cc(COc2cccc(C(F)(F)F)c2)on1	-2	0	1	i	-44	11	·	-3
COc1cc(OC)cc(-c2nc3ccccc3c(=O)n2OC(=O)c2ccc(Br)cc2)c1	-8	7	3	i	·	-12	0	-11
C=CCN1C(=O)OC2(CCCCC2)C1(C)O (stereo not drawn)	-2	-8	3	i	-12	-33	4	1
CCOC(=O)C1CCN(c2c(NCCCN(CC)Cc3ccccc3)c(=O)c2=O)CC1	-5	3	5	i	-10	-3	·	-1
O=C(CSc1nc2ccccc2n1S(=O)(=O)c1cccc([N+](=O)[O-])c1)NCCc1ccccc1	-4	0	4	i	·	73*	13	7
Cc1nnc2c(N(C)S(=O)(=O)c3ccccc3)nc3ccccc3n12	-6	5	1	i	-20	-11	-11	10
O=C(CCN1CCc2ccccc2C1)Nc1ccc(F)c(F)c1	2	2	0	i	·	1	-9	-1
COc1ccc(/C=N/NC(=O)C2c3ccccc3-c3ccccc32)cc1	-2	-1	-1	i	·	-18	34	3
Cc1ccc(NC2CCCN(C(=O)CCC(=O)c3ccccc3)C2)cc1C (stereo not drawn)	2	-1	1	i	-9	-2	·	10
CCC1CCCCN1CCCNC(=O)c1ccc2c(=O)n(Cc3ccc(OC)cc3)c(=O)[nH]c2c1 (stereo not drawn)	2	6	1	i	-15	-29	18	-16
N/C(=N\OC(=O)c1ccco1)c1cccnc1	-6	-3	0	i	·	-7	4	-7
O=C(NC(=S)NNC(=O)c1ccccc1F)c1cccnc1	7	1	3	i	-32	0	-6	-6
Cc1c(NC(=S)NC(=O)CCc2ccccc2)c(=O)n(-c2ccccc2)n1C	-2	-2	-1	i	4	3	-20	-11
COc1ccc(-c2cn3c(C)c(C(=O)N4CCc5ccccc5C4)sc3n2)cc1	-9	-1	-3	i	-15	·	9	14
O=C(Cc1ccc(NC(=O)C2CCN(C(=O)c3ccccc3)CC2)cc1)Nc1ccc(C(=O)N2CCOCC2)cc1	·	3	5	·	-11	0	·	·
CC(C)c1ccc(CSc2ccc(S(=O)(=O)N3CCOCC3)cn2)cc1	·	2	-6	·	-19	2	8	·
COc1ccccc1CNC(=O)C1CCCN(S(C)(=O)=O)C1 (stereo not drawn)	-6	-1	1	i	-20	·	·	6
CC(=O)Nc1ccc(NC(C)=O)c(NC2OCC(O)C(O)C2O)c1 (stereo not drawn)	4	1	0	i	·	11	-7	-2
CCN(CC)S(=O)(=O)c1ccc(N2CCN(S(=O)(=O)c3ccc4c(c3)OCCO4)CC2)nc1	-4	-8	-20	i	-97	·	15	32
Cc1noc(C)c1S(=O)(=O)N1CCC(C(=O)N2CCN(C(=O)c3ccco3)CC2)CC1	6	-7	-5	i	-12	-32	-12	3
O=C(COC(=O)c1ccccn1)NCc1ccccc1Cl	-12	2	3	i	·	·	3	3
CCCS(=O)(=O)c1c(S(=O)(=O)CCC)c2c(N)cccn2c1C(=O)c1ccc(F)cc1	?	-14	1	i	-3	·	1	?
Nc1ccccc1OCP(=O)(c1ccccc1)c1ccccc1	4	0	1	i	·	-5	-7	-2
COc1cc(C)nc(-c2csc(C)n2)n1	-1	-1	-1	i	·	16	8	5
Nc1c(Br)cc(Br)c(N2CCCC2=O)c1Br	-2	2	5	i	-10	·	-1	1
CC(=O)Nc1ccc(S(=O)(=O)N2C3CCCC2CC(NC(=O)C2CCCCC2)C3)cc1 (stereo not drawn)	3	-4	-6	i	-10	-17	-18	-3
O=C(CSc1nnc(-c2ccncc2)o1)NCc1ccccc1Cl	-10	-1	2	i	·	13	-12	3
CCOC(=O)[C@@H]1[C@H]2COc3cc(OC)ccc3[C@@H]2N2C(=O)N(c3ccccc3)C(=O)[C@@]12C	·	-1	0	·	-1	-11	-15	·
Cc1cc(C)c(NC(=O)c2cccc3c2C(=O)N(C2CCCCC2)C3)c(C)c1	-8	-17	-13	i	-20	·	-9	12
Cc1nc2c(cc1NC(=O)c1ccccc1)nc(C)n2Cc1ccccc1	-4	4	8	i	-14	9	2	2
CC(=O)c1ccc(OC(=O)c2nc(-c3ccccc3)oc2C)cc1	16	-3	-2	i	-9	1	1	5
c1ccc(Oc2nc(-c3cccnc3)nc3ccccc23)cc1	5	-9	-2	i	-10	2	40	-9
O=C(NC1CCCCC1)C(c1cccs1)N(C(=O)Cc1c[nH]c2ccccc12)c1ccc(F)cc1 (stereo not drawn)	-9	-14	-15	i	-24	87*	-4	-6

Sorted by molar mass (highest first): some entries from above.
SMILES	eIF4H FP inh	MT1-MMP act inh	MT1-MMP act inh RFP	Rce1 inhib	UUG fidelity	Env fusion inh	CSC inhib	PABP FP inh
Cc1noc(C)c1S(=O)(=O)N1CCC(C(=O)N2CCN(C(=O)c3ccco3)CC2)CC1	6	-7	-5	i	-12	-32	-12	3
CC(=O)Nc1ccc(S(=O)(=O)N2C3CCCC2CC(NC(=O)C2CCCCC2)C3)cc1 (stereo not drawn)	3	-4	-6	i	-10	-17	-18	-3
COc1ccc(-c2cn3c(C)c(C(=O)N4CCc5ccccc5C4)sc3n2)cc1	-9	-1	-3	i	-15	·	9	14
Cc1c(NC(=S)NC(=O)CCc2ccccc2)c(=O)n(-c2ccccc2)n1C	-2	-2	-1	i	4	3	-20	-11
CC(C)c1ccc(CSc2ccc(S(=O)(=O)N3CCOCC3)cn2)cc1	·	2	-6	·	-19	2	8	·
O=C(NCCN1CCOCC1)c1cccc(S(=O)(=O)N2CCCC2)c1	9	3	3	i	9	8	-12	-3
COc1ccc(CCNS(=O)(=O)CCNC(=O)c2ccccc2)cc1	·	-2	-3	i	-7	-35	-1	·
O=C(CSc1nnc(-c2ccncc2)o1)NCc1ccccc1Cl	-10	-1	2	i	·	13	-12	3
COc1ccc(/C=N/NC(=O)C2c3ccccc3-c3ccccc32)cc1	-2	-1	-1	i	·	-18	34	3
CC(=O)Nc1ccc(NC(C)=O)c(NC2OCC(O)C(O)C2O)c1 (stereo not drawn)	4	1	0	i	·	11	-7	-2
O=C(O)c1ccccc1-c1ccccc1C(=O)NCc1cccnc1	-8	-4	0	i	·	-9	-3	0
Cc1c(Cl)cccc1NC(=O)CCCn1cnc([N+](=O)[O-])n1	-10	1	1	i	-2	-10	·	-10
CC(=O)NN(O)C1N(C)C(=O)N(Cc2ccccc2)C1(C)C (stereo not drawn)	·	0	-1	i	·	9	-9	·
O=C(COC(=O)c1ccccn1)NCc1ccccc1Cl	-12	2	3	i	·	·	3	3
c1cnc2c(C3NCCc4c3[nH]c3ccccc43)cccc2c1 (stereo not drawn)	-1	0	3	i	-15	·	3	-1
CC(=O)N1CCN=C1SCc1cccc(C)c1	-3	0	4	i	-16	-2	-7	-8
N/C(=N\OC(=O)c1ccco1)c1cccnc1	-6	-3	0	i	·	-7	4	-7
C=CCN1C(=O)OC2(CCCCC2)C1(C)O (stereo not drawn)	-2	-8	3	i	-12	-33	4	1
